Screens deposited in PubChem BioAssay by National Center for Advancing Translational Sciences (NCATS).
LASV entry inh: qHTS for Inhibitors of binding or entry into cells for Lassa Virus; Potency, µM (titrated, usually from 37.9 µM), without a hit: at the top dose activity change, negative = inhibition, actives largely listed as inhibitors; Lassa virus pseudotype entry inhibition, cell reporter; control for the full effect not named in the record; 300,000 tested, 1.2% active; active means well fitted inhibition curve with a large enough effect; inconclusive means small, poorly fitted or top-dose-only effect, or effect the other way; inactive means flat fitted curve, though single readings scatter; tested in HEK293 cells; also: % is scaled to controls: 0 for no effect and ±100 for the full control effect; nearly all actives have a fitted effect of over 50% in size; luciferase read-out
NS1 function inh: qHTS Assay for Inhibitors of Influenza NS1 Protein Function; S. cerevisiae slowed by influenza A NS1, growth recovery by OD600; Potency, µM (highest dose often 46.1 µM), inactives show top-dose activity, positive = more growth; 270,000 tested, 0.4% active; active means well fitted rising curve with a large enough effect; inconclusive means small, poorly fitted or top-dose-only effect; inactive means no such curve, though single readings can be large or run the other way; also: nearly all actives have a fitted effect of over 50% in size
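Recovery from NS1-induced slow growth read by OD600 in budding yeast switched to galactose assay medium (pH 6.0, -URA) at 1:100 dilution. Compound 23 nl per well; the matching strain lacking NS1 serves as control.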
SARS PLP yeast: qHTS of Yeast-based Assay for SARS-CoV PLP. S. cerevisiae expressing SARS-CoV PLpro, growth rescue; control for the full effect not named in the record. Potency, µM (titrated, usually from 32.9 µM), for the others: at the highest dose activity, positive = growth rescue. 330,000 tested, 0.19% active. AID 485353, 2010; active means well fitted rising curve with a large enough effect; inconclusive means small, poorly fitted or top-dose-only effect; inactive means no such curve, though single readings can be large or run the other way; also: 0% is about no effect; nearly all actives have a fitted effect of over 55% in size; growth read by luminescence after 48 h
StopGo reporter: High Throughput Screening for Foot and Mouth Disease Virus Antivirals | Potency, µM (series often up to 57.9 µM), inactives show top-dose signal change, negative = less light | human cells with a luciferase reporter of 2A StopGo recoding; control for the full effect not named in the record | 410,000 tested, 1.2% active; active = well fitted falling curve with a large enough effect; inconclusive = small, poorly fitted or top-dose-only effect; inactive = no such curve, though single readings can be large or run the other way; tested in HEK293T cells; also: % is scaled to controls: 0 for no effect and ±100 for the full control effect; nearly all actives have a fitted effect of over 45% in size; luciferase light after 4 h
MARV entry inh: qHTS for inhibitors of binding or entry into cells for Marburg Virus | Marburg virus pseudotyped entry inhibition, cell reporter; control for the full effect not named in the record; about a third of the inactives were read at about 46 µM | Potency, µM (top dose mostly 37.8 µM), for inactives: top-dose activity change, negative = inhibition, usual class: inhibitors | 300,000 tested, 1.8% active | AID 540276, 2011; active = well fitted inhibition curve with a large enough effect; inconclusive = small, poorly fitted or top-dose-only effect, or effect the other way; inactive = flat fitted curve, though single readings scatter; tested in HEK293 cells; about a fifth of its hits are not listed in these tables; also: % is scaled to controls: 0 for no effect and ±100 for the full control effect; luciferase read-out
RE007 growth inh: qHTS Assay for Inhibitors of the HIV-1 protein Vpr; 360,000 tested, 0.21% active; Potency, µM (highest dose often 92.2 µM), for inactives: at the top dose activity change, negative = less growth; S. pombe RE007 Vpr strain, BacTiter-Glo ATP luminescence, 24 h; control for the full effect not named in the record; AID 651644, 2012; active = well fitted falling curve with a large enough effect; inconclusive = small, poorly fitted or top-dose-only effect; inactive = no such curve, though single readings can be large or run the other way;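 also: % is scaled to controls: 0 for no effect and ±100 for the full control effect; nearly all actives have a fitted effect of over 50% in size; the assay follows cell death caused by Vpr and the record does not say whether a fall means rescue or toxicity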
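Fission yeast RE007 carrying one integrated HIV-1 vpr copy, seeded at OD 0.01 in PMG+AL medium with 23 nL pinned compound. Grown 24 h at 30 degrees; viability read by BacTiter-Glo luminescence after 5 min.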
Cruzain inh noDet: qHTS Assay for Promiscuous and Specific Inhibitors of Cruzain (without detergent). Potency, µM, inactives show max response, negative = inhibition, actives largely listed as inhibitors. AID 1476, 2009. 200,000 tested, 2.3% active. purified cruzain, Z-FR-AMC fluorescence, no detergent. Cruzipain (Trypanosoma cruzi), P25779;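 also: plate controls were enzyme without inhibitor for no effect and buffer without enzyme for full effect; nearly all actives have a fitted effect of over 40% in size; top concentration of the series not given in the record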
Target sequence (P25779 123-467 limits assumed): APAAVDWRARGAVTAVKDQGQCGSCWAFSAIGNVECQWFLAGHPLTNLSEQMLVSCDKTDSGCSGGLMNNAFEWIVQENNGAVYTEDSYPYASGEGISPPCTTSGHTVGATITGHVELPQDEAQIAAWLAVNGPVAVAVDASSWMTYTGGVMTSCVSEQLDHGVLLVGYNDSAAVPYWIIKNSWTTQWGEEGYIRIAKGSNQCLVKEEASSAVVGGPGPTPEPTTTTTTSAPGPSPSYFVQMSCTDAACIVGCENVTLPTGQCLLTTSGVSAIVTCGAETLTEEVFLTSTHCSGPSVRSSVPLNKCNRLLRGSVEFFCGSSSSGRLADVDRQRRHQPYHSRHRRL
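Purified cruzain at 1.5 nM, pre-incubated 15 min with compound at room temperature in 100 mM sodium acetate pH 5.5, 5 mM DTT, 0.00005% Triton X-100. Reaction started with 2 uM Z-FR-AMC; AMC fluorescence increase over 60 s gives rate.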
Cruzain Triton: qHTS Assay for Promiscuous and Specific Inhibitors of Cruzain (with detergent). AID 1478, 2009. 200,000 tested, 0.43% active. purified cruzain, Z-FR-AMC fluorescence, 0.01% Triton. Potency, µM, without a hit: max response, negative = inhibition, usual class: inhibitors;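 also: plate controls were neutral wells for no effect and buffer without enzyme for full effect; nearly all actives have a fitted effect of over 40% in size; top concentration of the series not given in the record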
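Cruzain (1.5 nM) preincubated 15 min at RT with compound in 100 mM sodium acetate pH 5.5, 5 mM DTT, 0.01% Triton X-100. Reaction started with 2 uM Z-FR-AMC; AMC fluorescence (ex 360/em 450 nm) change over 60 s gave rate.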
* marks the source's active call; other numbers are inactive results; ? = inconclusive; / = no result given; & = joins results of further samples; [ ] = another dose, or the depositor's remark. Unless noted, calls follow the shape of the dose curve; as a rule, active = well fitted curve in the direction sought with a large enough effect; inconclusive = small, poorly fitted or top-dose-only effect, or another doubt; inactive = no such curve, though single readings can be large; an effect the other way counts as inactive or inconclusive. Potency is read from the fitted curve at half-maximal effect. Not a hit list; any-hit rate near 4.7%.

Start of the listing, in advance (two entries):
SMILES | LASV entry inh | NS1 function inh | SARS PLP yeast | StopGo reporter | MARV entry inh | RE007 growth inh | Cruzain inh noDet | Cruzain Triton
O=[N+]([O-])c1ccccc1/C=N/n1c(C2CCCCC2)n[nH]c1=S | 5.8% | -30.8% | -49.1% | -16.7% | 7.5% | 27.2% | 4.6% | -3.6%
Cc1ccc(C(=O)Nc2nc(-c3nnn(-c4cccc(Cl)c4C)c3C)ns2)cc1C | 2.9%[46.1 µM] | / | / | ? | / | / | ? | -1.5%

The listing, from the start:
SMILES | LASV entry inh | NS1 function inh | SARS PLP yeast | StopGo reporter | MARV entry inh | RE007 growth inh | Cruzain inh noDet | Cruzain Triton
O=[N+]([O-])c1ccccc1/C=N/n1c(C2CCCCC2)n[nH]c1=S | 5.8% | -30.8% | -49.1% | -16.7% | 7.5% | 27.2% | 4.6% | -3.6%
Cc1ccc(C(=O)Nc2nc(-c3nnn(-c4cccc(Cl)c4C)c3C)ns2)cc1C | 2.9%[46.1 µM] | / | / | ? | / | / | ? | -1.5%
CC(=O)N(c1ccccc1)C(C(=O)c1ccccc1)c1ccccc1 (stereo not given) | ? | / | / | ? | ? | 15.7% | / | /
Cc1ccc2cc(C)c3nnc(SCC(=O)Nc4nc5c(s4)CCCC5)n3c2c1C | 1.8% | -0.3% | -2.4% | -20.3% | -23.6% | 2.7% | ? | -11.6%
CC(C)(C)c1ccccc1NC(=O)c1ccc(-n2cncn2)c([N+](=O)[O-])c1 | ? | / | -1.7% | -14.8% | -1.1%[46.1 µM] | 3.6% | / | /
CC(C)N(C(=S)NCc1ccccc1)C(C)C | / | -4.4% | 0.5% | 5.7% | / | 9.9% | / | /
O=C1/C(=C/c2cccc(Br)c2)SC(=S)N1CCC(=O)N(CCO)c1ccccc1 | / | 23.2% | 1.6% | -3.2% | / | 10.4% | / | /
C[C@H](N)Cc1cnc[nH]1 | / | / | / | 0.0%&-13.4% | ? | / | 2.9% | -2.9%
O=C(CNc1cccc(S(=O)(=O)N2CCCC2)c1)Nc1cccc(Br)c1 | ? | / | 1.7% | ? | ? | -6.8% | / | /
Cc1cc(-c2nnc(SCC(=O)Nc3ccccc3)n2C)no1 | 1.5% | -5.4% | 0.7% | -13.2% | ? | 0.5% | / | /
O=C(Nc1ccc(Cl)cc1)Nc1ccc(N2CCCC2)c(S(=O)(=O)Nc2ccccc2Cl)c1 | 5.01µM* | 18.1% | -20.4% | -8.9% | 1.58µM* | 8.4% | ? | -1.0%
COc1ccc(N2CCN(C(=O)c3ccc(S(=O)(=O)N4CCCC4)cc3)CC2)cc1 | -14.1%[46.1 µM] | 0.2% | -2.3% | 6.3% | ? | 8.9% | / | /
COc1cc(O)cc2cc3c(c(O)c12)C(=O)CC(C)(O)O3 (stereo not given) | / | 3.8% | -1.2% | 30.2%[activator] | / | 3.4% | / | /
Cc1ccsc1C(C(=O)NC(C)(C)C)N(Cc1ccco1)C(=O)c1csnn1 (stereo not given) | 3.7% | -2.3% | 2.9% | -12.6% | 3.0%[46.1 µM] | 16.9% | / | /
CC(C)Cc1nc(SCC(=O)Nc2nnc(CC(C)C)s2)n[nH]1 | 14.6% | -2.5% | -0.2% | -6.8% | -4.4%[46.1 µM] | -4.9% | / | /
Cc1ccc(N2CC(O)=C(c3ccccc3)C2=N)cc1 | 4.5% | / | -0.4% | 34.3%[activator] | ? | -3.7% | / | /
Cc1nnc(SCC(=O)Nn2cnnc2)s1 | -9.8% | -1.2% | 2.7% | -8.7% | 1.7% | 2.9% | 5.1% | 5.5%
O=C(Nc1ccc(-c2cn3ccsc3n2)cc1)C1CC1 | ? | -50.0% | -12.9% | 46.2%[activator] | -4.4% | ? | -1.3% | 4.3%
COc1ccc(NC(=S)Nc2cccc(C(F)(F)F)c2)c(C)c1 | 1.5%[46.1 µM] | 0.6% | 0.2% | 11.3% | ? | -10.7% | / | /
CC1=CC(=C2C(=O)NC(=O)NC2=O)C=C(C(F)(F)F)N1Cc1ccccc1 | ? | ? | 1.1% | -21.1% | ? | 12.8% | / | /
Cc1ccc(-c2nc3ccccc3[nH]2)s1 | ? | -88.8% | -27.8% | 14.5% | 12.6µM* | 20µM* | ? | -9.2%
O=C(NCc1ccc(C(F)(F)F)cc1)C12CN(Cc3ccccc3)CC1C(c1cccc([N+](=O)[O-])c1)=NO2 (stereo not given) | / | 12.6µM* | 2.9% | -15.6% | -0.2% | 9.5% | ? | 0.9%
COc1cccc(NC(=O)c2sc3nc(C)c(C(=O)Nc4ccc(Cl)cc4)c(-c4ccc(Br)cc4)c3c2N)c1 | ? | / | / | -4.6% | ? | / | -1.8% | 0.4%
COc1ccc(C(=O)Nc2ccccc2SCc2cc(=O)n3nc(C)sc3n2)cc1OC | -7.8%[46.1 µM] | -11.0% | 2.2% | 0.1% | -3.2%[46.1 µM] | 0.8% | / | /
Cc1[nH]c(C)c(C(=O)O)c1CNC1CCCCC1C (stereo not given) | / | -1.2% | -0.9% | / | -7.2% | / | -3.9% | 7.0%
C/C(=N\NC(=O)c1ccccc1O)c1c(O)cc(C)oc1=O | 51.9%[14.3 µM] | -127.8% | -12.7% | 0.0% | ? | -10.4% | -11.7% | -1.6%
O=C(NC(=S)N1CCCc2ccccc21)c1ccc([N+](=O)[O-])cc1 | 4.7% | 14.1% | -3.5% | / | ? | 10.1% | ? | 0.1%
Cc1ccc(-n2ncc(C(=O)NCc3cccs3)c2C2CCN(C(=O)OC(C)(C)C)CC2)cc1C | ? | / | / | ? | / | / | 5.6% | -12.3%
COc1ccc(S(=O)(=O)CCC(=O)N2CCN(c3ccc([N+](=O)[O-])cc3)CC2)cc1 | / | -18.7% | 7.3% | ? | / | 1.2% | / | /
CCc1ccc(NC(=O)N2CC=C(c3c[nH]c4ccccc34)CC2)cc1 | / | / | / | -12.9% | ? | / | -5.2% | -8.8%
O=C(NNc1nc2ccc(Cl)cc2s1)c1cc(-c2cccs2)nc2ccccc12 | -23.3% | -18.8% | -60.1% | ? | ? | -8.6% | 7.94µM* | 1.6%
Cc1ccc(C)c(N2N=C(C(=O)Nc3cccc(S(=O)(=O)N4CCCCC4)c3)CCC2=O)c1 | ? | / | 1.1% | -28.6% | -29.2% | -17.2% | / | /
O=C(NC(Cc1c[nH]c2ccccc12)c1nnc2n1CCCCC2)c1ccccc1 (stereo not given) | 1.0% | 0.7% | 2.7% | 24.1% | 15.6% | -5.6% | -6.7% | 2.3%
Cc1cc(C)cc(COn2ccnc2)c1 | 9.4% | 7.5% | / | -20.0% | 29.6% | -24.8% | 3.1% | 5.6%
Cc1cc(=O)[nH]c(SCC(=O)N2CCN(C(=O)c3ccco3)CC2)n1 | 17.1% | / | -10.0% | -15.1% | 20.4% | 2.8% | / | /
COC(=O)C1=C(N)OC2=C(C(=O)CC(C)(C)C2)C1c1cccs1 (stereo not given) | 6.3% | -6.8% | 3.6% | 14.2% | ? | -4.4% | 0.3% | -3.8%
CCSc1nnc(SCC(=O)NNC(=O)c2ccccc2F)s1 | -0.9% | -0.4% | -5.2% | -9.2% | -16.6% | 2.2% | / | /
NC(=O)C1CCCN1Cc1ccc2c(c1)OCO2 (stereo not given) | 3.3% | / | / | -15.4% | -15.1% | -26.6% | / | /
CC1(C)Cc2c(sc3c2c(=N)n(Cc2ccco2)c(=O)n3Cc2ccccc2)CO1 | ? | -30.1% | -1.6% | ? | ? | 7.6% | -18.6% | 1.3%
COc1cc(CNc2nc3ccccc3n2C)cc(OC)c1OC | -0.2% | 3.6% | 11.5% | -12.6% | 26.0% | 5.3% | 6.0% | 0.8%
C/C(=C\COc1cc(=O)[nH]c2ccccc12)CCC(O)C(C)(C)O (stereo not given) | / | 3.4% | 1.0% | -21.5%&-28.5% | / | 1.1% | 3.6%&1.9% | -0.1%&-1.0%
Cc1cccc(NS(=O)(=O)c2ccc(Oc3ccccc3)cc2)n1 | ? | -33.4% | -7.4% | 19.8% | ? | 6.3% | -4.5% | -2.0%
O=C(CSc1nc2ccccc2n1S(=O)(=O)c1ccccc1)N1CCCCC1 | 16.5% | -2.6% | -0.4% | 67.8%[activator] | -5.3% | -0.3% | -0.7% | -0.7%
Cc1ccc(S(=O)(=O)N2CCCCC2)cc1NC(=O)COC(=O)C1=COCCO1 | 3.6% | / | 2.2% | -13.0% | 9.2%[46.1 µM] | -26.0% | / | /
CC(NC(=O)c1ccc(CS(C)(=O)=O)cc1)c1ccc(-c2ccccc2)cc1 (stereo not given) | -2.4%[46.1 µM] | -44.3% | -3.3% | 35.0%[activator] | 0.9%[46.1 µM] | -6.6% | / | /
O=S(=O)(NC1CCCCCCC1)c1cccs1 | ? | -88.3% | -0.5% | 43.5%[activator] | -18.8%[46.1 µM] | -12.3% | 3.6% | -0.9%
O=C1CN=C(Nc2ccccc2)N1Cc1cccs1 | 1.0% | 19.8% | -5.0% | 0.8% | 0.0% | 0.1% | -10.1% | 4.3%
Cc1cc(-c2cc(C(=O)NC3CCCC3)on2)nc(NCC2CC2)n1 | / | 5.8% | 2.2% | -12.0% | / | 6.7% | / | /
CC(=O)c1ccccc1NC(=O)COC(=O)CCCN1C(=O)c2cccc3cccc(c23)C1=O | 1.3% | 5.0% | 19.8% | -20.4% | ? | 2.0% | 16.7% | -10.3%
COc1cccc(OC)c1C(=O)N1CCN(C(=O)c2ccc(-c3ccccc3)cc2)CC1 | ? | 2.0% | 5.7% | 11.9% | 26.7%[46.1 µM] | 6.6% | / | /
Cc1nn(C2CCS(=O)(=O)C2)c(Cl)c1/C=C/C(=O)OCC(=O)Nc1ccccc1[N+](=O)[O-] (stereo not given) | -11.8% | -9.0% | -1.8% | ? | 18.2%[46.1 µM] | 7.7% | / | /
